Bioassay records (PubChem BioAssay)
Mtb H37Rv – Mycobacterium tuberculosis H37Rv growth inhibition, cell based, confirmatory dose response (AID 1949); most inactive calls were filed without a number and no value below 0 was filed; inhibition, % at 10 µg/mL, or IC50 in µg/mL where a hit was titrated; hit rate 1.6% among 100,000;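 active means confirmed in a dose series; inconclusive means about 50% or more but not retested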;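 further: bacteria grown 7 days with compound before Alamar blue readout; 0% = untreated bacteria and 100% = reference antibiotic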
The depositor's hits bear a star; i = inactive; ? = inconclusive.

smiles,Mtb H37Rv
Cc1cc(=O)oc2ccc(OC(=O)Cc3cccs3)cc12,i
COC(=O)c1ccc(C)c(NS(=O)(=O)c2ccccc2)c1,3%
CC1=C(C)OC2=C(O1)Oc1c(cc(C#N)nc1N)C21CCSCC1,1%
CC12CC3CC(C)(C1)CC(C(=O)Nc1nccs1)(C3)C2,?
Cc1nc(N)sc1-c1nnc(Nc2ccccc2)s1,i
Cn1c(=O)n(C)c2cc(C(=O)Nc3ccc4c(c3)OCO4)ccc21,i
CCNC(=S)N1CCN(CC)CC1,i
CC(=O)c1ccc(NC(=O)c2ccc(COc3cccc4ccccc34)o2)cc1,8%
COc1ccc(Cl)cc1NC(=S)NCCN1CCOCC1,i
N#Cc1ccc(NC(=O)CCC2CCCC2)cc1,i
O=C(Nc1sc2c(c1C(=O)NCCCN1CCOCC1)CCCC2)c1ccco1,i
C=CCNC(=S)NCc1cccc(Oc2ccccc2)c1,i
Cc1ccc(OCC(=O)Nc2ccc(Br)c(C)n2)cc1C,i
Cc1cccc(CN2CCN(C(=O)c3cccc4ccccc34)CC2)c1,i
O=C(Nc1ccc(N2CCN(C(=O)c3ccco3)CC2)cc1)c1ccc2c(c1)OCO2,i
Cc1cc(C)nc(-n2nc(C)c(Oc3ccccc3O)c2C)n1,3%

Among those listed so far, these have sulfur.
smiles,Mtb H37Rv
Cc1cc(=O)oc2ccc(OC(=O)Cc3cccs3)cc12,i
COC(=O)c1ccc(C)c(NS(=O)(=O)c2ccccc2)c1,3%
CC1=C(C)OC2=C(O1)Oc1c(cc(C#N)nc1N)C21CCSCC1,1%
CC12CC3CC(C)(C1)CC(C(=O)Nc1nccs1)(C3)C2,?
Cc1nc(N)sc1-c1nnc(Nc2ccccc2)s1,i
CCNC(=S)N1CCN(CC)CC1,i
COc1ccc(Cl)cc1NC(=S)NCCN1CCOCC1,i
O=C(Nc1sc2c(c1C(=O)NCCCN1CCOCC1)CCCC2)c1ccco1,i
C=CCNC(=S)NCc1cccc(Oc2ccccc2)c1,i

Continuation.
smiles,Mtb H37Rv
COc1ccc(CCNC(=O)C2CCN(C(=O)c3ccc(-c4ccccc4)cc3)CC2)cc1OC,i
Cc1cc(C)cc(C(=O)NC(=S)Nc2ccc3c4c(cccc24)CC3)c1,3%
S=c1[nH]nc(-c2cccc(Br)c2)n1C1CCCCC1,2%
O=C(Nc1ccccc1-c1ccccc1)c1ccccc1Br,3%
Cc1onc(-c2ccccc2)c1C(=O)N1CCN(c2cccc(C(F)(F)F)c2)CC1,2%
O=C(NCc1ccc(F)cc1)c1nc2ncccn2n1,i
Cc1ccc(-n2c(-c3ccc4ccccc4n3)n[nH]c2=S)c(Br)c1,i
CCOC(=O)c1sc(NC(=O)CSc2n[nH]c(-c3ccccc3)n2)nc1C,2%

The list goes on; the last 4 above are carried over.
smiles,Mtb H37Rv
Cc1onc(-c2ccccc2)c1C(=O)N1CCN(c2cccc(C(F)(F)F)c2)CC1,2%
O=C(NCc1ccc(F)cc1)c1nc2ncccn2n1,i
Cc1ccc(-n2c(-c3ccc4ccccc4n3)n[nH]c2=S)c(Br)c1,i
CCOC(=O)c1sc(NC(=O)CSc2n[nH]c(-c3ccccc3)n2)nc1C,2%
O=C(O)CCCC(=O)Nc1c(F)c(F)c(F)c(F)c1F,i
CCSc1nc2c(c(=O)[nH]1)C(c1cc(OC)c(OC)c(OC)c1)C1=C(CC(C)(C)CC1=O)N2 (stereo not drawn),i
CCNC(=S)N1CCNC(=O)C1CC(=O)OCC (stereo not drawn),3%
COc1cccc(NC(=S)Nc2ccc(Cl)cc2Cl)c1,i
OCCNc1cc(-n2cccn2)nc(-c2ccccc2)n1,3%
COc1ccc(S(=O)(=O)Nc2ccccc2SC)cc1Br,i
Cc1ccc(C(=O)NC(=S)Nc2ccccc2I)c(C)c1,5%
CC(C)(C)c1ccc(OCC(=O)O)cc1,i
CCOc1ccccc1N(CC(=O)N1CCC(Cc2ccccc2)CC1)S(C)(=O)=O,i
c1ccc(OCCOCCSc2ncccn2)cc1,i
CCn1c(SCC(=O)OC(C)C)nnc1-c1cccc(Cl)c1,i
CC(C)CN(CC(C)C)C(=O)c1ccccc1C(=O)N(CC(C)C)CC(C)C,i
O=C(Nc1ccccc1[N+](=O)[O-])c1ccc(NC(=O)c2ccccc2Cl)cc1,i
N#CCCN(CCC#N)C(=O)C1CCCO1 (stereo not drawn),i
COC(=O)CC1C(=O)NCCN1C(=S)Nc1cccc(OC)c1 (stereo not drawn),i
CC(C)(C)C1CCC(OCC(O)CN2CCN(c3ccc(F)cc3)CC2)CC1 (stereo not drawn),i
COc1cc(OC)cc(C(=O)NCCCCc2ccccc2)c1,1%
CCOC(=O)c1ccc(NC(=O)c2ccc(NS(=O)(=O)c3cccc4cccnc34)cc2)cc1,i
O=S(=O)(Nc1cccc(Cl)c1Cl)c1ccc2c(c1)OCCO2,i
O=C(COc1ccccc1)N1CCN(Cc2ccccc2Br)CC1,i
COC(=O)c1cc(OC(=O)c2ccco2)n(C)n1,i
COc1ccc(Cl)cc1NC(=O)CSc1nnc(CNC(=O)c2ccc(Cl)cc2Cl)n1C,i
COc1ccc(OCCCC(=O)Nc2ccccc2C(N)=O)cc1,i
COc1cccc(C(=O)COc2ccc3c(c2)oc(=O)c2cc(OC)ccc23)c1,0%
CCC(C)NC(=O)CN(C)S(=O)(=O)c1ccc(Br)cc1 (stereo not drawn),i
CC(C)(C)c1ccc(C(=O)Nc2ccc(C(=O)O)cc2)o1,i
CC1CN(CCS(=O)(=O)c2ccc(Oc3ccc(S(=O)(=O)CCN4CC(C)OC(C)C4)cc3)cc2)CC(C)O1 (stereo not drawn),i
OC(COc1ccccc1)CSc1nc2ccccc2s1 (stereo not drawn),22%
O=C(N1CCC(Cc2ccccc2)CC1)C(F)(F)F,1%
CC(C)CC(=O)N1CCC(N2CC(C)CC(C)C2)CC1 (stereo not drawn),i
CCCn1c(SCC(=O)NCc2ccccc2)nnc1-c1ccncc1,i
COc1ccc(Cl)cc1S(=O)(=O)Oc1c(Cl)cccc1Cl,4%

(further entries)
SMILES	Mtb H37Rv
COc1cc(/C=C/c2[nH]c(=O)[nH]c(=O)c2[N+](=O)[O-])cc(I)c1OCc1ccc(C)cc1	i
CCc1cccc(NS(=O)(=O)c2ccccc2)c1	i
COc1cc(C)c(NC(=O)c2cccs2)cc1C(C)C	i
Cc1onc(-c2ccccc2)c1C(=O)Nc1cccc(NC(=O)c2c(-c3ccccc3)noc2C)c1	i
O=C(Nc1cnc2ccccc2c1)N1CCCCCC1	i
CCn1c(CCCO)nc2ccccc21	1%
O=C(CCn1cnc2ccccc2c1=O)Nc1cccc(Cl)c1	i
COc1ccc(OC)c(NC(=O)COc2cc(C)c(Br)cc2C(C)C)c1	i
Cc1ccc(Nc2cc(N3CCOCC3)c3nonc3c2[N+](=O)[O-])cc1Cl	i
O=C(CCc1nc(-c2ccc(Cl)cc2)no1)N1CCOCC1	i
Cc1ccc(-c2cc(C(=O)N(C)Cc3cnn(C)c3C)c3cc(Br)ccc3n2)cc1	i
O=C1NC(=O)N(c2ccc(Cl)cc2)C(=O)/C1=C\c1ccc([N+](=O)[O-])o1	i
O=C(NC(=S)NCc1ccco1)C1CC1	i
CCOc1ccccc1N1CCN(S(=O)(=O)c2cc(C)c(Br)cc2C)CC1	16%
Cc1cc(C)c(S(=O)(=O)N(C)CC(=O)N2CCOCC2)c(C)c1	1%
O=C(O)CSc1nc2cc(N3CCOCC3)c(F)cc2[nH]1	1%
CCC(C)NCCCCOc1ccc(C)cc1 (stereo not drawn)	2%
N#Cc1ccc(NC(=O)c2ccccc2I)cc1	i
O=C(N/N=C/c1c(O)ccc2ccccc12)c1cc(C2CC2)[nH]n1	3%
Cc1ccc(CC(=O)N2CCN(c3ccccc3F)CC2)cc1	2%
CCN(C(=O)Cc1coc2ccc3ccccc3c12)c1ccccc1	7%
CCN(Cc1cc2ccccc2[nH]c1=O)C(=O)Cc1cccc2ccccc12	0%
CC(=O)Nc1cccc(OCc2ccc(Cl)cc2)c1	i
Cc1ccc(C)c(OCC(=O)Oc2ccc(Cl)cc2)c1	i
CCc1ccc(C(=O)NCc2cnn(C)c2)s1	5%
CC(=O)c1ccc(NC(=O)CSc2nnc(N)n2-c2ccccc2)cc1	i
CCn1c(CNC(=O)c2cccc(C)c2)nnc1SCC(=O)Nc1ccccc1[N+](=O)[O-]	i
O=C(NCCCO)C(=O)NCC1COc2ccccc2O1 (stereo not drawn)	i
c1ccc2oc(N3CCCCC3)nc2c1	2%
Nc1ncnc2c1ncn2CCN1CCOCC1	4%
COc1cccc(OC)c1C(=O)n1nnc2ccccc21	i
COC(=O)c1c(C)cc(C(F)(F)F)nc1SCC(=O)c1n[nH]c2ccccc12	0%
CSCCC(Nc1ncnc2sc3c(c12)CCCC3)C(=O)O (stereo not drawn)	i
Cc1c(NC(=O)c2ccc(S(=O)(=O)N3CCCC3)cc2)c(=O)n(-c2ccccc2)n1C	i
S=C(Nc1ccc2nsnc2c1)NC1CCCCC1	i
Cc1ccc(Cc2ccc(C(=O)Nc3ccc(C)c(C)c3)o2)cc1	0.18µg/mL*
CC(=O)C(Sc1ccccc1)C(=O)c1ccccc1 (stereo not drawn)	i
CSc1ccccc1NC(=O)COc1ccccc1C	i
O=C(NCc1ccccc1)c1ccc(NC(=O)c2ccccc2I)cc1	i
CCC(C)NCCOCCOc1ccc(F)cc1 (stereo not drawn)	i
CCOc1ccc(S(=O)(=O)NC(C)(C)C)cc1C	i
O=C(Nc1ccc(-c2nc3ccc(Cl)cc3c(=O)o2)cc1)c1ccco1	i
N#C/C(=C/c1cccc(I)c1)c1ccc2c(c1)OCO2	i
COC(=O)c1c(NC(=S)Nc2nc(C)cc(C)n2)sc2c1CCC2	i
CCOc1ccc(N(CC(=O)Nc2cccc([N+](=O)[O-])c2)S(=O)(=O)c2ccccc2)cc1	i
CN1CCN(C(=S)c2ccc(Cl)cc2)CC1	i
CC(C(=O)NCCN1CCOCC1)(c1ccccc1)c1ccccc1	i
S=C(Nc1ccc(Nc2ccccc2)cc1)N1CCOCC1	i
O=C(Nc1ccc(-c2noc(COc3ccc(Br)cc3)n2)cc1)c1cccs1	i
COc1ccc(Cl)cc1NC(=O)Nc1cccc2ccccc12	15%
COc1ccc(NC(=O)CC(c2ccccc2)c2ccc(OC(C)C)cc2)cc1 (stereo not drawn)	i
COc1ccc(NC(=O)c2nc3nc(C)cc(C(F)F)n3n2)cc1OC	i
CC(=O)Oc1ccc2c(=O)c(Oc3ccccc3)c(C(F)(F)F)oc2c1OC(C)=O	i
Cc1c(NC(=O)C(c2ccccc2)c2ccccc2)c(=O)n(-c2ccccc2)n1C	i
COc1cc(NC(=S)Nc2ccc(NS(=O)(=O)c3ccc(C)cc3)cc2)cc(OC)c1	i
S=c1[nH]nc(-c2ccc(Cl)cc2)n1N=Cc1cccnc1	i
CCOC(=O)C(CC)Oc1ccc2c(=O)c(-c3ccccc3OC)c(C(F)(F)F)oc2c1 (stereo not drawn)	?
Cc1cc(C)c(NC(=O)c2cc3ccccc3oc2=O)c(Cl)c1	i
COc1ccccc1NC(=O)CSc1nnc(NC(=O)c2ccc(C)cc2)s1	0%
CN1CCC(OC(=O)Cc2ccccc2)CC1	i

Carrying on:
SMILES	Mtb H37Rv
NCCSC1CC(=O)N(Cc2ccc(F)cc2)C1=O (stereo not drawn)	i
CCOC(=O)c1ccc(NC(=O)CSc2ncn(-c3ccccc3)n2)cc1	i
CCc1ccc(OCC(=O)N2CCN(c3cccc(Cl)c3)CC2)c(Br)c1	i
CCOC(=O)CSc1nnc2n(CC)c(=O)c3c(n12)-c1ccccc1CC31CCCCC1	0%
O=C(CS(=O)(=O)c1ccccc1)Nc1cc(C(F)(F)F)ccc1Cl	i
COC(=O)c1c(NC(=O)c2cccc(Cl)c2)sc(C(=O)N(C)C)c1C	i
CCCCNS(=O)(=O)c1ccc(OCC)cc1	i
COc1cccc(C(=O)COc2ccc3c4c(c(=O)oc3c2C)CCCC4)c1	i
NCc1cc(Cl)c(OCc2ccccc2)c(Cl)c1	i
Cc1ccc(CNC(=O)CSc2n[nH]c(N)n2)cc1	i
COc1cc(CNCc2cccs2)ccc1OCc1cccs1	i
COC(=O)Nc1c(C)nc2n(C)c3ccccc3n12	i
Cc1ccc(NC(=O)CSc2nc3ccccc3s2)cc1	i
Cc1ccccc1OCc1nnc(SCC(=O)N2CCOCC2)n1C	i
O=C(COc1cccc(C(F)(F)F)c1)Nc1cccnc1	i
O=C(O)C1C2C=CC(C2)C1C(=O)NCc1ccncc1 (stereo not drawn)	i
C=CCOc1ccc(C2C(C(=O)c3ccco3)=C(O)C(=O)N2CCCOC)cc1OC (stereo not drawn)	i
CC(CCc1ccccc1)NS(=O)(=O)c1cccc([N+](=O)[O-])c1 (stereo not drawn)	4%
Cc1ccc(C2CC(C(F)(F)F)n3nc(C(=O)O)cc3N2)cc1 (stereo not drawn)	i
CCOC(=O)c1c(NC(=O)C2CCCC2)sc2c1CCCC2	0%
CS(=O)(=O)N(CC(=O)Nc1ccc2c(c1)OCO2)c1cccc(F)c1	i
O=C(c1ccco1)N1CC2CC(C1)c1cccc(=O)n1C2 (stereo not drawn)	i
CCC(C(=O)Nc1sccc1C(N)=O)c1ccccc1 (stereo not drawn)	i
O=C(Nc1cccc(Cl)c1)Nn1cnnc1	i
COc1ccc(Cl)cc1NC(=O)C(C)N1C(=O)C2C3C=CC(C4CC34)C2C1=O (stereo not drawn)	i
COc1ccc(C(NC(=O)c2ccc(C)cc2)NC(=O)c2ccc(C)cc2)cc1OC	i
O=C(NCc1ccccc1)c1ccc2nccnc2c1	2%
CCn1c(SCc2ccc([N+](=O)[O-])cc2)nnc1-c1ccc(C)cc1	i
S=C(NCc1ccccn1)Nc1ccccc1	i

The list is partial. The share of hits here may be higher or lower than overall.
